PINK1 expr mod – A Quantitative High throughput Screen to Identify Chemical Modulators of PINK1 Expression | Potency, µM (titrated, usually from 76.6 µM), without a hit: at the highest dose activation (PINK1 increase), hits mostly activators | actives 0.2% (n = 410,000) | PINK1 immunofluorescence, high-content cytometry, 24 h; active = well fitted activation curve with a large enough effect; inconclusive = small, poorly fitted or top-dose-only effect; inactive = flat fitted curve, though single readings scatter; cell line not stated here;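 note: potency is the fitted concentration of half-maximal effect; % of control where 0% means no effect; nearly all actives have a fitted effect of over 65% in size; a mitochondrial uncoupler was the plate control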
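PINK1 protein level read as immunofluorescence by microplate cytometer in a fixed, stained stable cell line after 24 h exposure to five compound concentrations, with CCCP as control.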
TRPML1 blocker – qHTS for Inhibitors of the Human Mucolipin Transient Receptor Potential 1 (TRPML1). Mucolipin-1 (Homo sapiens), Q9GZU1. activity change, negative = inhibition, % (test concentration not listed). actives 0.02% (n = 390,000). TRPML1-inducible cells, Ca2+ dye fluorescence, FDSS; active compounds read low; inhibition of EC80 agonist-evoked calcium signal; in the data active means activity change below about -50%; inconclusive means about -30% to -50%; inactive means above about -30%;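 note: stimulus is agonist 54-4 at its EC80 concentration; % is set by controls: 0 for no effect and ±100 for the full control effect; compound concentration not given in the record; the text of the record puts the active cut at -80%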
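TRPML1-DL cells, Tet-induced overnight (~16 h, 37 °C) at 1,500 cells/well, were loaded with Ca8 no-wash dye plus quencher for 45-90 min at room temperature. Compounds were pinned during FDSS kinetic reading; agonist 54-4 at EC80 (4 uM final) then added.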
Six1-Eya2 blk – qHTS Assay for Inhibitors of the Six1/Eya2 Interaction. actives 0.56% (n = 360,000). activity change, % (concentration not given with the values). AlphaScreen GST-Six1/His-Eya2 binding, biochemical; active compounds read low; control for the full effect not named in the record; in the data active = activity change below about -65%; inconclusive = about -30% to -65%; inactive = above about -30%; note: % is set by controls: 0 for no effect and ±100 for the full control effect
Target sequence (O00167 whole entry, looked up): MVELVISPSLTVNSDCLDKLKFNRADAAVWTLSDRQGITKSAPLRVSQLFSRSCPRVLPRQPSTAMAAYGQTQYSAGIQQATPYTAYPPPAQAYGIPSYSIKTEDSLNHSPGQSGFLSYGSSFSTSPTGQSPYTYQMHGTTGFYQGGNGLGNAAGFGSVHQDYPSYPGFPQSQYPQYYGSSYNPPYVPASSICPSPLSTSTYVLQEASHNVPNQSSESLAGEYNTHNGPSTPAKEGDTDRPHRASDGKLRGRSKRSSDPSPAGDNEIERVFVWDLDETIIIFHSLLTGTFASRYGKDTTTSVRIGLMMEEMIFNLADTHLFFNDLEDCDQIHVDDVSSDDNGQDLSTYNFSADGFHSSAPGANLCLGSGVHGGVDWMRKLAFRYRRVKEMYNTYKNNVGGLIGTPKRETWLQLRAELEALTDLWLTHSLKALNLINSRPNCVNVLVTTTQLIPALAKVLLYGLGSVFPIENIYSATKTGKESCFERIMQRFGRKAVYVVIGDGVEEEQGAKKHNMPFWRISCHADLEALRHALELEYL
Target sequence (Q15475 whole entry, looked up): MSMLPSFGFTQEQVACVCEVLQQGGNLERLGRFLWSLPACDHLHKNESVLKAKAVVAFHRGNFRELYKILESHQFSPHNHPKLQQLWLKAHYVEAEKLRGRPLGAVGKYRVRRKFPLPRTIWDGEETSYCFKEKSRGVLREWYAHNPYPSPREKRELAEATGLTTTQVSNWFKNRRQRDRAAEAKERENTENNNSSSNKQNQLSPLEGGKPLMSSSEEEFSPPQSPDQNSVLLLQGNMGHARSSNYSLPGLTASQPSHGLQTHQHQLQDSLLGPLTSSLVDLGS
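AlphaScreen with GST-Six1 and His-Eya2 (5X mix: 250 nM and 500 nM), glutathione donor and nickel acceptor beads; buffer 50 mM Tris pH 8.0, 300 mM NaCl, 1 mM TCEP; 1 h at 37 C in the dark.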
D2 agonist – Beta-Arrestin HTS for Positive Allosteric Modulators of the Human D2 Dopamine Receptor: Agonists; D(2) dopamine receptor (Homo sapiens), P14416; DiscoveRx PathHunter D2 beta-arrestin, luminescence, 90 min; 100% = 57 uM dopamine signal; activation, % (test concentration not listed); actives 0.084% (n = 360,000); AID 624465, 2012; in the data active = activation above about 40%; inconclusive = about 15% to 40%; inactive = below about 15%; note: compound concentration not given in the record; the text of the record calls up to 30% inactive
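Agonist mode: compounds alone added to overnight-plated D2 PathHunter cells for 90 min at 37 C, with 57 uM final dopamine (EC100) defining full response. Beta-arrestin recruitment detected by chemiluminescent reagent, read after 1 h at ambient temperature.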
D2 potentiator – Beta-Arrestin HTS for Positive Allosteric Modulators of the Human D2 Dopamine Receptor: Potentiators; D(2) dopamine receptor (Homo sapiens), P14416; DiscoveRx D2 beta-arrestin cells, luminescence, 90 min; 100% = 57 uM dopamine signal; potentiation, % (no concentration beside the values); actives 0.23% (n = 360,000); AID 624464, 2012; active = potentiation of 50% or more; inconclusive = 30% to 50%; inactive = 30% or less;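 note: compound concentration not given in the record; tested on top of an EC20 dose of dopamine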
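D2 cells co-treated with compound plus 50 nM dopamine (EC20) for 90 min at 37 deg C to detect potentiation. Beta-arrestin recruitment was read as enzyme-fragment luminescence after 1 h at ambient temperature. Full response was set by 57 uM dopamine.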
TRPML1 agonist – qHTS for Agonists of the Human Mucolipin Transient Receptor Potential 1 (TRPML1); Mucolipin-1 (Homo sapiens), Q9GZU1; TRPML1-expressing cells, Ca2+ dye fluorescence, FDSS; host cell line not named in the record; reference of the full effect not given here; activation, % (concentration not given with the values); actives 0.12% (n = 410,000); AID 624414, 2012; in the data active = activation above about 50%; inconclusive = about 30% to 50%; inactive = below about 30%; note: 0% is about no effect; the text of the record puts the active cut at 80%
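Cells: TRPML1-DL, 1X Tet inducer, ~16 h at 37 degrees C/5% CO2. Dye: ABD Ca8 no-wash + quencher, 45-90 min RT. Read: 10 s baseline, compound add, 110 s agonist phase; 54-4 EC80 (4uM final), 110 s antagonist phase.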
Active calls of the source: *; ? = inconclusive; nt = not tested or not shown; & = joins results of further samples; [ ] = dose if it differs, or a comment. Random draw from the library; 1% or so of the library scored in one or more.

SMILES	PINK1 expr mod	TRPML1 blocker	Six1-Eya2 blk	D2 agonist	D2 potentiator	TRPML1 agonist
CCCc1nnc(SCC(=O)Nc2nnc(CC)s2)n1CC1CCCO1 (configuration not stated)	-1.3%	-21	0	-3.0	2	0.2
CCC(=O)Nc1c2c(nn1-c1ccccc1)CSC2	-0.6%	-14	6	-2.2	1	-0.1
Cc1cc(C(c2cc(C)c(N)c(C)c2)c2ccco2)cc(C)c1N	2.3%	28	?	-1.6	-11	3.8
COc1cccc(CNC(=O)C2CCN(S(=O)(=O)c3ccc(F)cc3)CC2)c1	-0.1%	-4	3	-1.2	-8	1.1
CC(C)c1nc2oc3c(NCC4CCCO4)ncnc3c2c2c1CCC2 (configuration not stated)	0.6%	10	-1	0.0	17	1.0
C[C@H](NC(=O)c1ccccc1Cl)C(=O)OC(C(=O)Nc1cc(C(F)(F)F)ccc1Cl)c1ccccc1 (some centres not stated)	2.9%	6	4	-3.7	-11	1.2
O=C(Nc1ccccc1C(=O)N1CCCCCC1)c1ccccc1	0.1%	-12	9	4.6	-5	-0.5
O=C(O)C1(C(=O)O)CCCC1	2.0%	3	10	-3.5	-7	0.1
CCc1ccc(-n2cnc3cc(C(=O)NCC(OC)OC)ccc32)cc1	-0.1%	nt	3	-1.0	4	nt
CCc1nc(Nc2ccc3nccnc3c2)c2oc3ccccc3c2n1	6.6%[38.3 µM]	-8	-19	2.5	-11	0.9
Cc1csc(NC(=O)c2cn3ccccc3n2)n1	0.5%	17	?	-0.2	2	0.1
COc1cccc(-n2c(Cn3nc(C(F)F)cc3C(F)F)n[nH]c2=S)c1	-0.8%	11	-4	-3.2	-22	-0.3
S=C(Nc1nc2c(s1)CCCC2)NC1CC1	2.6%	17	-9	4.2	-12	2.3
COc1ccc(CCN(C)Cc2ccc(OCc3ccccc3)c(OC)c2)cc1OC	-3.7%[38.3 µM]	-8	-17	-1.0	-14	2.4
CCOc1ccc(C2C(C(=O)Nc3ccc(C)cc3C)=C(C)Nc3c(C(=O)Nc4ccc(C)cc4)cnn32)cc1OC (configuration not stated)	29%	32	nt	nt	nt	2.0
COc1ccc(NC(=O)/C=C/c2cccc(Br)c2)cn1	8.4%	8	-9	-0.6	-14	-0.5
C=CCC1(CC=C)CCCN1C(=O)c1cc(COc2ccccc2SC)on1	1.0%	76	3	-2.3	-17	3.5
CCOCCn1c(=O)c2c(nc3n2CC(C)CN3Cc2ccccc2)n(C)c1=O (configuration not stated)	-0.3%	-12	-3	-4.5	-5	-1.5
CC1CCC(N2CC(=O)N(C3CCCCC3)C(c3ccc(F)cc3)C2=O)CC1 (configuration not stated)	0.0%	5	nt	nt	nt	2.3
Cc1cc(C)c(S(=O)(=O)Nc2cccc(-c3cn4ccccc4n3)c2)c(C)c1	1.9%	-5	nt	nt	nt	1.2
Nc1nc(C(=O)N2CCOCC2)nn1S(=O)(=O)c1ccccc1	0.6%	-3	2	-2.3	-4	-0.6
COc1ccc(Nc2ncnc3sc(C)cc23)cc1	-2.1%	3	-11	0.5	-5	3.5
CC1CCN(S(=O)(=O)c2ccc3nc(Nc4cccc(F)c4)ccc3c2)CC1	16µM*	-4	nt	nt	nt	4.7
Cc1ccc(C(=O)Nc2c(C(=O)NCc3ccc(Cl)cc3)sc3nc(C)cc(C)c23)cc1	1.2%	-20	nt	nt	nt	-0.1
COC(=O)c1cc(-c2ccc(C)cc2)n[nH]1	0.8%	34	11	-3.0	-2	1.0
Cc1c(C(=O)N(C)C)sc2c1c(=O)n(-c1ccc(F)cc1)c(=O)n2Cc1ccccc1C#N	1.1%	-4	nt	nt	nt	0.5
O=C(COC(=O)CCN=C1NS(=O)(=O)c2ccccc21)NC1CCCCCCC1	1.8%	nt	5	-3.9	-5	nt
Cc1ccccc1N1CCN(C2CCCN(C(=O)CCN3CCCO3)C2)CC1 (configuration not stated)	-0.9%	0	-2	-3.2	-29	-0.2
COc1ccc(C(N)c2csc(Nc3ccc(C(=O)c4ccccc4)cc3)n2)cc1 (configuration not stated)	-0.2%	2	3	6.8	3	-0.6
COc1cccc(CNS(=O)(=O)c2c(C(=O)N3CCCCC3)c(C)n(C)c2C)c1	0.7%	-1	-9	-3.8	-3	-0.5
COc1ccc(CCNC(=O)CCc2c(C)nc3cc(-c4ccc(Cl)cc4)nn3c2C)c(OC)c1	0.7%	-1	nt	nt	nt	-0.6
Cc1ccc2c(c1)c1c3n2CCNC3CCC1 (configuration not stated)	0.3%&5.4%	-8&9	-22&-23	-5.8&0.2	-21&-1	0.5&0.3
Cc1nnc2ccc(N3CCCC3)nn12	1.1%	29	0	-3.9	-9	-0.3
COc1ccc(CNC(=O)C2CCCN(Cc3nc(-c4cccc(C)c4)oc3C)C2)cc1 (configuration not stated)	-0.7%	9	-3	-3.3	-3	4.1
COC(=O)c1ccccc1NC(=O)NCc1cccnc1	-2.2%	-3	4	-6.6	-10	-1.0
CCCCCCN1C[C@@H](n2cc(COC(=O)c3ccccc3)nn2)[C@H](O)C[C@@H]1c1ccc(C)cc1	-0.7%	7	6	-8.3	3	0.0
Cc1ccc(C(=O)NC(=S)Nc2ccc(CN3CCOCC3)cc2)cc1	5.7%	-3	2	3.5	-2	-0.4
O=C(c1ccc2c(c1)C(=O)N(Cc1ccncc1)C2=O)N1CCN(S(=O)(=O)c2ccc(OC(F)(F)F)cc2)CC1	0.3%	5	10	-0.7	-4	-0.4
COc1cc(-c2c(NC(=O)c3ccco3)oc3ccc(Cl)cc3c2=O)cc(OC)c1OC	0.5%	-3	-4	-1.8	-4	-0.5
Cc1ccc(C)c2c1cc(C)c1nnc(SCC(=O)Nc3cccc(C(=O)O)c3)n12	0.2%	-15	3	1.9	1	-0.1

A draw from above in order of count of non-hydrogen atoms, highest first:
SMILES	PINK1 expr mod	TRPML1 blocker	Six1-Eya2 blk	D2 agonist	D2 potentiator	TRPML1 agonist
COc1ccc(CNC(=O)C2CCCN(Cc3nc(-c4cccc(C)c4)oc3C)C2)cc1 (configuration not stated)	-0.7%	9	-3	-3.3	-3	4.1
CC1CCN(S(=O)(=O)c2ccc3nc(Nc4cccc(F)c4)ccc3c2)CC1	16µM*	-4	nt	nt	nt	4.7
Cc1ccc(C(=O)NC(=S)Nc2ccc(CN3CCOCC3)cc2)cc1	5.7%	-3	2	3.5	-2	-0.4
COC(=O)c1cc(-c2ccc(C)cc2)n[nH]1	0.8%	34	11	-3.0	-2	1.0

The list goes on:
SMILES	PINK1 expr mod	TRPML1 blocker	Six1-Eya2 blk	D2 agonist	D2 potentiator	TRPML1 agonist
C=CCn1c(NCc2cc(Cl)ccc2O)nc2ccccc21	15%	9	-21	6.6	-7	0.9
Cc1c(NC(=S)NC(=O)c2ccc(COc3ccccc3)cc2)cccc1C(=O)O	-1.7%	-3	-6	-3.3	11	-0.6
O=C(NNC(=O)c1ccncc1)Nc1ccc(Cl)cc1	-4.2%	39	2	-3.6	-14	0.2
Cn1ccsc1=NC(=O)c1ccc(Cl)cc1	1.4%	-10	3	-5.9	2	1.6
COc1ccccc1NC(=O)c1cc([N+](=O)[O-])ccc1NCCN1C(=O)CCC1=O	-1.5%	36	-6	-3.5	-5	0.4
CC(OC(=O)CN1C(=O)c2ccccc2C1=O)C(=O)NC1(C#N)CCCCC1 (configuration not stated)	1.1%	-9	2	0.0	-2	1.2
C#Cc1ccc(NC(=O)C2(C)CCN2C(=O)C2(c3ccccc3)CCCC2)cc1 (configuration not stated)	5.9%	nt	-1	3.5	-4	-0.8
Oc1c(Br)cc(Cl)cc1C=Nc1ccc(N2CCOCC2)cc1	2.4%	-1	-1	-4.2	-7	4.5
Cc1ccc(NC(=O)CSc2nc3ccccc3c(=O)n2CCCN2CCCCC2)cc1C	-5.1%	20	-5	-2.1	-17	-1.1
CC(C)[C@H](NC(N)=O)C(=O)Nc1cccc(S(=O)(=O)NC2=NCCCCC2)c1	1.6%	-13	8	6.9	21	0.2
O=C(O)c1ccc(S(=O)(=O)NC2CCCCC2)cc1	-0.1%[38.3 µM]	37	2	-1.9	4	0.2
COc1ccccc1NC(=O)CCCN1C(=O)C2CC=CCC2C1=O (configuration not stated)	-1.7%	10	8	-1.9	-7	0.7
Cc1ccccc1N1C(=O)c2sc3nc4c(c(=O)n3c2C1=O)CCC4	3.1%[38.3 µM]	-4	-3	0.8	-7	-0.6
CN1CCN(C2=C(NS(=O)(=O)c3ccccc3)C(=O)c3ccccc3C2=O)CC1	-1.6%	-9	-5	3.9	-14	-0.4
COC(=O)C1=C(C)NC(C)=C(C(=O)OC)C1c1ccc(OC(=O)c2ccco2)cc1	3.1%	5	-4	-0.9	-6	0.2
Cc1cccc(C)c1N1CCN(S(=O)(=O)N2CCCCC2)CC1	-0.5%	17	9	0.6	1	-0.1
CS(=O)(=O)N1CCC(C(=O)Nc2ccc(Cl)cc2Cl)CC1	-0.6%	-4	5	-0.8	-8	-0.7
O=c1c2ccccc2nc(/C=C/c2ccccc2)n1CCc1ccccc1	0.8%	5	2	-0.3	-18	-0.4
COc1ccc(C(C#N)N2CCCCCC2)cc1OC (configuration not stated)	0.1%	-4	3	-2.4	-19	1.4
CCN(CC(=O)NCc1ccc(Cl)cc1)C(=O)Cc1ccccc1[N+](=O)[O-]	-0.2%	2	3	-0.2	8	-0.7

Entries from the list above that contain bromine, in the order listed:
SMILES	PINK1 expr mod	TRPML1 blocker	Six1-Eya2 blk	D2 agonist	D2 potentiator	TRPML1 agonist
COc1ccc(NC(=O)/C=C/c2cccc(Br)c2)cn1	8.4%	8	-9	-0.6	-14	-0.5
Oc1c(Br)cc(Cl)cc1C=Nc1ccc(N2CCOCC2)cc1	2.4%	-1	-1	-4.2	-7	4.5

New compounds follow:
SMILES	PINK1 expr mod	TRPML1 blocker	Six1-Eya2 blk	D2 agonist	D2 potentiator	TRPML1 agonist
CC1C(=O)N2CCCc3cc(NC(=O)c4ccccc4C(F)(F)F)cc1c32 (configuration not stated)	-1.8%	-15	2	-2.1	7	-0.1
CCCSc1nnc2nc3c(nn12)c1ccccc1n3C	2.6%	-12	-26	-2.1	-8	0.4
CC(=O)c1ccc(NC(=O)CSc2cn(CC(=O)N3CCCCCC3)c3ccccc23)cc1	-0.6%	-5	nt	nt	nt	2.5
Cc1ccc(S(=O)(=O)NCCC2=CCCCC2)cc1	0.4%	18	14	-2.1	-15	2.2
